Lassa entry inh: qHTS for Inhibitors of binding or entry into cells for Lassa Virus; Lassa virus pseudotype entry inhibition, cell reporter; control for the full effect not named in the record; Potency, µM (highest dose often 37.9 µM), for the others: at the highest dose activity change, negative = inhibition, hits mostly inhibitors; hit rate 1.2% among 300,000; AID 540256, 2011; active means well fitted inhibition curve with a large enough effect; inconclusive means small, poorly fitted or top-dose-only effect, or effect the other way; inactive means flat fitted curve, though single readings scatter; tested in HEK293 cells; also: nearly all actives have a fitted effect of over 50% in size; luciferase read-out
Marburg entry inh: qHTS for inhibitors of binding or entry into cells for Marburg Virus | Marburg virus pseudotyped entry inhibition, cell reporter; control for the full effect not named in the record; about a third of the inactives were read at about 46 µM | Potency, µM (doses to about 37.8 µM), for the others: top-dose activity change, negative = inhibition, most hits filed as inhibitors | hit rate 1.8% among 300,000; active = well fitted inhibition curve with a large enough effect; inconclusive = small, poorly fitted or top-dose-only effect, or effect the other way; inactive = flat fitted curve, though single readings scatter; tested in HEK293 cells; about a fifth of its hits are not listed in these tables; also: luciferase read-out
* = called active by the depositor; & = joins results of further samples; [ ] = another dose, or the depositor's remark. % is scaled to controls: 0 for no effect and ±100 for the full control effect; potency is read from the fitted curve at half-maximal effect. The list is partial; count on the stated rates, not on these rows.

`O[C@H]1CN(Cc2cccs2)[C@@H](c2ccccc2)C[C@H]1n1cc(-c2ccc(F)cc2)nn1` gave Lassa entry inh inconclusive.
`Cc1ccc2c(-c3ccnc(Nc4ccccc4)n3)c(-c3ccc(F)cc3)nn2n1` gave Lassa entry inh 25µM*.
Screening COc1ccc2c(-c3ccnc(Nc4cccc(OC(F)(F)F)c4)n3)cnn2n1 returned Lassa entry inh inconclusive.
Screening COc1ccc(CN2C[C@]3(CO)OC(CO)C[C@H]3[S+]2(=O)[O-])cc1 (some centres not stated) returned Lassa entry inh 5.1%[46.1 µM].
Screening COC(=O)[C@H](C(C)C)N(Cc1cc(OC)cc(OC)c1)S(=O)(=O)CCl returned Lassa entry inh inconclusive.
COc1cccc(-n2ncc3c(NN=Cc4cccc(F)c4)ncnc32)c1 was read as Lassa entry inh inconclusive.
`Cc1cccc(Nc2ncc(-c3ccccc3)o2)c1` gave Lassa entry inh inconclusive.
c1ccc(-c2[nH]ncc2-c2ccnc(-c3ccc(OCCN4CCOCC4)cc3)c2)nc1 was read as Lassa entry inh 6.0%.
For Cc1cc2c(c(=O)o1)[C@H](Cc1ccccc1)C(C#N)=C(N)O2 the results were Marburg entry inh 18.5%[46.1 µM].
For NC1(N)OC(CN2C(=O)C3=C(CCCC3)C2=O)CS1 (configuration not stated) the results were Marburg entry inh -6.2%.
`COC1=C[C@H](C(=O)N[C@H]2CCCC[C@H]2NC(C)=O)[C@@]2(C)Cc3ccccc3[C@@H]2CC1=O` gave Marburg entry inh -12.3%[14.2 µM].
CC12C=C(/C=C/CCc3ccco3)C(C)(C1)C(CCc1ccco1)CC2=O (configuration not stated) was read as Marburg entry inh -5.8%[14.2 µM].

The closing 7 compounds of the section above open the next one:
COc1cccc(-n2ncc3c(NN=Cc4cccc(F)c4)ncnc32)c1 was read as Lassa entry inh inconclusive.
`Cc1cccc(Nc2ncc(-c3ccccc3)o2)c1` gave Lassa entry inh inconclusive.
c1ccc(-c2[nH]ncc2-c2ccnc(-c3ccc(OCCN4CCOCC4)cc3)c2)nc1 was read as Lassa entry inh 6.0%.
For Cc1cc2c(c(=O)o1)[C@H](Cc1ccccc1)C(C#N)=C(N)O2 the results were Marburg entry inh 18.5%[46.1 µM].
For NC1(N)OC(CN2C(=O)C3=C(CCCC3)C2=O)CS1 (configuration not stated) the results were Marburg entry inh -6.2%.
`COC1=C[C@H](C(=O)N[C@H]2CCCC[C@H]2NC(C)=O)[C@@]2(C)Cc3ccccc3[C@@H]2CC1=O` gave Marburg entry inh -12.3%[14.2 µM].
CC12C=C(/C=C/CCc3ccco3)C(C)(C1)C(CCc1ccco1)CC2=O (configuration not stated) was read as Marburg entry inh -5.8%[14.2 µM].
For CC#CCN1C(=O)NC(c2ccccc2)C(C(=O)OC)=C1C (configuration not stated) the results were Marburg entry inh inconclusive.
CCN1C[C@@]2(COC)C3[C@@H](OC)C4[C@@H]1C3([C@@H]1C[C@@]3(O)[C@H](OC(=O)c5ccccc5)[C@@H]1[C@]4(OC(C)=O)[C@@H](O)[C@@H]3OC)[C@H](OC)C[C@H]2O was read as Marburg entry inh 1.1%.
`CCCC[C@@H]1CN2[C@H](c3ccc(Br)cc3)[C@@H](C)CC[C@H]2C(=O)O1` gave Marburg entry inh inconclusive.
Screening C=C(C)C[C@@]1(c2ccccc2)Oc2ccccc2C2=NCCN=C21 returned Marburg entry inh -20.7%[14.2 µM].
Screening CCN1C(=O)NC(CCc2ccccc2)C(C(=O)OC)=C1C (configuration not stated) returned Marburg entry inh 16.7%[14.2 µM].
Screening COc1ccc2c(c1)[C@@]1(OCCC=C[C@@H]1C)C(=O)N2CC1CC1 returned Marburg entry inh -6.7%[14.2 µM].
C[N+]1(C)[C@@H]2CC[C@H]1CC(OC(=O)c1c[nH]c3ccccc13)C2 (some centres not stated) was read as Marburg entry inh 8.4%.
Screening COc1ccc(CN2Cc3ccccc3Oc3ccc(Cl)cc3S2(=O)=O)cc1 returned Marburg entry inh inconclusive.
OC1CCC(Br)CC1C1NC2=C(CCCC2)S1 (configuration not stated) was read as Marburg entry inh 11.4%.
Screening C=CC[C@@H]1C=C[C@@H](OC(=O)OCC)[C@@H](COC(=O)OCC)O1 returned Marburg entry inh inconclusive.
Screening CCOC(=O)OC[C@H]1O[C@H](c2ccc(C(C)=O)cc2)C=C[C@@H]1Oc1ccc(-c2ccccc2)cc1 returned Marburg entry inh 2.8%[14.2 µM].
CCOC(=O)CCN1C(=O)[C@H]2[C@H]3[C@H](O)[C@H](O)C/C(=N/NC(=O)OCc4ccc(OC)cc4)[C@@H]3CC[C@@H]2C1=O was read as Marburg entry inh 11.9%[14.2 µM].
Screening C[C@@H]1CCc2cc(F)cc3c(O)c(C(=O)NC[C@H]4CCCO4)c(=O)n1c23 returned Marburg entry inh -22.0%[46.1 µM].
Screening CCCCCCCc1cc2ccc(F)cc2c2c(C(=O)OC)c(C(=O)OC)c(C(=O)OC)n12 returned Marburg entry inh -18.8%[14.2 µM].
Screening CCc1cc2c(nc1CC)CCN(CC/C(C)=N/OC[C@@H](C)[C@H](OCc1ccccc1)C(C)C)C2 returned Marburg entry inh -16.5%&-16.5%[14.2 µM].
Screening COC1CCCCC1C1CCN(C(=O)c2ccco2)CC1 (configuration not stated) returned Marburg entry inh -3.8%[14.2 µM].
Screening COc1ccc2c(c1)[C@@H](NC(=O)C(F)(F)F)C1CCCCC21c1ccccc1 (some centres not stated) returned Marburg entry inh -4.1%[14.2 µM].
`CC(C)CO/N=C1\C[C@@H](O)[C@@H](O)[C@@H]2[C@@H]3C(=O)N(c4cccc(Oc5ccccc5)c4)C(=O)[C@@H]3CC[C@@H]12` gave Marburg entry inh -1.1%[14.2 µM].
C[C@@H]1CC[C@H]2C(=O)N(Cc3ccc(Cl)cc3)C[C@H](O)CN2[C@@H]1c1ccc(Br)cc1 was read as Marburg entry inh 29.1%[14.2 µM].
COc1ccc(COC(=O)N/N=C2/C[C@@H](O)[C@@H](O)[C@@H]3[C@@H]4C(=O)N(C[C@@H]5CCCO5)C(=O)[C@H]4CC[C@@H]23)cc1 was read as Marburg entry inh inconclusive.
`COc1ccc2c(c1)[C@@]1(OCCC=C[C@@H]1C)C(=O)N2Cc1ccccc1C(F)(F)F` gave Marburg entry inh -14.7%[14.2 µM].
For O=C1C(=O)N(CCN2CCOCC2)[C@@H](c2ccccn2)/C1=C(\O)c1ccccc1 the results were Marburg entry inh 23.2%.
`CCOC(=O)NN=C1C[C@@H](O)[C@@H](O)[C@@H]2[C@H]3C(=O)N(C[C@@H]4CCCO4)C(=O)[C@@H]3CC[C@H]12` gave Marburg entry inh 5.7%[14.2 µM].
Screening C=CC[C@@](C(C)=O)(C(=O)OC)[C@@H](NC(=O)OC(C)(C)C)c1ccccc1 returned Marburg entry inh inconclusive.
C[C@H]1Cc2c(COc3ccccc3)nc3c(c2CO1)CN(S(=O)(=O)c1ccc2c(c1)OCCN2C)CC3 was read as Marburg entry inh inconclusive.
For COC(=O)C1=C(C(=O)OC)[C@@H]2N(C)c3ccccc3[C@@]23CCC(=O)N(CCCOC(C)C)C3=N1 the results were Marburg entry inh -9.7%[14.2 µM].
Screening C[C@H]1[C@@H](c2ccccc2)Oc2c(Cl)cccc2S(=O)(=O)N1C returned Marburg entry inh inconclusive.
Screening CC(=O)OC[C@H]1O[C@H](C#CC(C)(C)C)C=C[C@H]1OC(C)=O returned Marburg entry inh 16.1%&9.8%[14.2 µM].
Screening COC/C=C/C1=CC2=CC(=O)C(C)(OC(=O)c3cnc4ccccc4n3)C(=O)C2=CN1CCc1c[nH]c2ccccc12 (configuration not stated) returned Marburg entry inh 22.3%[14.2 µM].
Screening COC(=O)N[C@@H](c1ccc2ccccc2c1)C(C(C)=O)C(=O)OC (some centres not stated) returned Marburg entry inh -16.1%[14.2 µM].
Screening CC(=O)OC[C@H]1O[C@H](CC=NO[C@@H](C)CN2CCCc3nc(C)c(C)cc32)C=C[C@@H]1OC(C)=O returned Marburg entry inh 9.1%[14.2 µM].
C=CCOC(=O)C1=C(C)N(CC)C(=O)NC1c1ccccc1 (configuration not stated) was read as Marburg entry inh -4.6%[14.2 µM].
Screening CN1CC[C@@]2(CCN3CCc4c(oc5ccccc45)[C@@H]3C2)N(C)C1=O returned Marburg entry inh 5.2%.
COC(=O)N[C@@H](c1cccc(C)c1)[C@]1(C(=O)OC)CCCC1=O was read as Marburg entry inh inconclusive.
Screening CCCC1C(=O)n2c(nc3ccccc32)N=C1C (configuration not stated) returned Marburg entry inh 23.7%.
For C=CCOc1ccc(/C(O)=C2\C(=O)C(=O)N(CCN(C)C)[C@@H]2c2cccs2)cc1 the results were Marburg entry inh 6.5%[46.1 µM].
COC(=O)C1=C2C=CCCN2C(=O)NC1c1ccccc1 (configuration not stated) was read as Marburg entry inh -16.8%[14.2 µM].
C=CCOC(=O)C(C(C)=O)C(NC(=O)OC)c1ccc(F)cc1 (configuration not stated) was read as Marburg entry inh 19.6%[14.2 µM].
CCN1C(=O)N(C)C(c2ccccc2)C(C(C)=O)=C1C (configuration not stated) was read as Marburg entry inh 12.6%[14.2 µM].
`OC[C@H]1O[C@H](C#Cc2ccc(F)cc2F)C=C[C@H]1O` gave Marburg entry inh inconclusive.
Screening COC(=O)C1=C(C(=O)OC)[C@@H]2N(Cc3ccccc3)c3ccccc3[C@@]23C[C@@H](C(=O)OC)N(C(=O)Nc2ccc(C(F)(F)F)cc2)C3=N1 returned Marburg entry inh inconclusive.
For CC#CCN1C(=O)N(C)C(c2ccccc2)C(C(=O)OC)=C1C (configuration not stated) the results were Marburg entry inh -3.5%[14.2 µM].
For CC(C)=CCN1C(=O)[C@]2(O[C@H](COc3ccccc3)CC3=CCCC32)c2c(Br)cccc21 (some centres not stated) the results were Marburg entry inh -17.0%[14.2 µM].
Screening CC(C)=CCCC(C)=CCN1C(=O)[C@@]2(CC(C)=C[C@@H](COCc3ccccc3)O2)c2ccccc21 returned Marburg entry inh 6.4%[14.2 µM].
For CN(CCNC(=O)c1ccc(/C=N\O)nc1)Cc1ccccc1 the results were Marburg entry inh 9.3%.
`CC(=O)OC[C@H]1O[C@H](C#Cc2ccccc2)C=C[C@@H]1OC(C)=O` gave Marburg entry inh 21.0%[14.2 µM].
`COC(=O)C1=C(C)C(=O)[C@]2(O)c3ccccc3N(C)[C@]12C` gave Marburg entry inh 18.2%[14.2 µM].
COC(=O)C1=NN=C(C(=O)OC)[C@@]2(C)c3ccccc3NC12 (some centres not stated) was read as Marburg entry inh inconclusive.

Three entries already listed, sorted by molar mass, low to high.
`CCCC[C@@H]1CN2[C@H](c3ccc(Br)cc3)[C@@H](C)CC[C@H]2C(=O)O1` gave Marburg entry inh inconclusive.
`Cc1ccc2c(-c3ccnc(Nc4ccccc4)n3)c(-c3ccc(F)cc3)nn2n1` gave Lassa entry inh 25µM*.
Screening COC(=O)C1=C(C(=O)OC)[C@@H]2N(Cc3ccccc3)c3ccccc3[C@@]23C[C@@H](C(=O)OC)N(C(=O)Nc2ccc(C(F)(F)F)cc2)C3=N1 returned Marburg entry inh inconclusive.

(continued)
`COC[C@@H](O)[C@H]1OCc2cccc(OC)c2[C@H]1C=Cc1ccccc1` gave Marburg entry inh 8.0%[14.2 µM].
`CC(=O)OC[C@H]1O[C@H](CCO/N=C(\C)CCN2CCc3nc(-c4ccccc4)c(-c4ccccc4)cc3C2)C=C[C@@H]1OC(C)=O` gave Marburg entry inh inconclusive.
CC1=CC[C@@H](COc2ccccc2)O[C@@]2(C1)C(=O)N(CC1CC1)c1ccccc12 was read as Marburg entry inh 20.0%[14.2 µM].
C[C@@H]1CN(C2CCN(S(=O)(=O)c3ccc4ccccc4c3)CC2)C[C@H](C)O1 was read as Marburg entry inh -29.1%.
`C/C(CCN1CCc2nc(-c3ccccc3)c(-c3ccccc3)cc2C1)=N\OC[C@@H](O)COCc1ccco1` gave Marburg entry inh inconclusive.
Screening CC[C@@H](c1ccccc1)n1c(=O)n2n(c1=O)[C@H]1[C@H](O)[C@@H]3O[C@H]3C(=NOCc3ccccc3)[C@H]1CC2 returned Marburg entry inh inconclusive.
For O=C1[C@@H]2[C@H]3[C@H](O)[C@H](O)CC(=NOC[C@@H](O)COCc4ccco4)[C@@H]3CC[C@H]2C(=O)N1C[C@@H]1CCCO1 the results were Marburg entry inh -0.9%[14.2 µM].
O=C(OCc1cn([C@H]2CN(CC3CCCCC3)[C@@H](c3ccc(Cl)cc3)C[C@H]2O)nn1)c1ccccc1 was read as Marburg entry inh 14.1µM*.
Screening COC(=O)C/C=C/[C@@H](C)[C@@H](/C=N/OC[C@@H](O)COCc1ccco1)OC returned Marburg entry inh -14.0%[14.2 µM].
For CC12C=C(C=CCCc3ccco3)C(C)(C1)[C@H](CCc1ccco1)CC2=O (some centres not stated) the results were Marburg entry inh 28.8%[14.2 µM].
Screening COC(=O)C1=C(C)N(Cc2ccccc2)C(=O)NC1c1cccc(F)c1 (configuration not stated) returned Marburg entry inh 3.1%[14.2 µM].
`CC(=O)OC[C@H]1O[C@H](CC=NOC[C@@H](O)[C@H]2O[C@@H]3OC(C)(C)O[C@H]3[C@@H]2O)C=C[C@H]1OC(C)=O` gave Marburg entry inh inconclusive.
COc1ccc(C=CN(CCc2ccc(OC)c(OC)c2)C(=O)c2ccccn2)cc1 was read as Marburg entry inh -10.7%[14.2 µM].
COc1cccc(NC(=O)C[C@H]2SC(=Nc3ccccc3)NC2=O)c1 was read as Marburg entry inh -24.7%.
Screening C=COC[C@H]1CN2[C@@H](CC[C@@H](C)[C@@H]2c2ccc(Br)cc2)C(=O)O1 returned Marburg entry inh -0.9%[14.2 µM].
For CCCC[C@]12Cc3cc(OC)c(OC)cc3[C@H](O1)C1=C(CC3(CCCCC3)OC1=O)O2 the results were Marburg entry inh -24.0%[14.2 µM].

Compound activity deposited in PubChem BioAssay by National Center for Advancing Translational Sciences (NCATS).
